Bioassay records as filed in PubChem BioAssay.
CtBP-E1A inh: qHTS Assay for Inhibitors of the CtBP/E1A Interaction; 340,000 compounds, 0.49% hits; activity change, % (concentration not given with the values); CtBP / adenovirus E1A interaction (AlphaScreen); AID 651724, 2012; AlphaScreen GST-E1A/His-CtBP binding, 1536-well; stronger effect = lower value; control for the full effect not named in the record; in the data active means activity change below about -65%; inconclusive means about -30% to -65%; inactive means above about -30%; further: on the % scale 0 is the no-effect control and ±100 the full control effect
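In 5 uL wells, 23 nL compound meets equimolar GST-E1A and His-CtBP (5X stock 125 nM each) for 2 h, 37 °C. Beads (5X, 50 ug/mL) then 1 h, 37 °C, dark.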
D2 agonist: Beta-Arrestin HTS for Positive Allosteric Modulators of the Human D2 Dopamine Receptor: Agonists | DiscoveRx PathHunter D2 beta-arrestin, luminescence, 90 min; 100% = 57 uM dopamine signal | activation, % (test concentration not listed) | 360,000 compounds, 0.084% hits; in the data active = activation above about 40%; inconclusive = about 15% to 40%; inactive = below about 15%; further: compound concentration not given in the record; the text of the record calls up to 30% inactive
Target sequence (P14416 whole entry, looked up): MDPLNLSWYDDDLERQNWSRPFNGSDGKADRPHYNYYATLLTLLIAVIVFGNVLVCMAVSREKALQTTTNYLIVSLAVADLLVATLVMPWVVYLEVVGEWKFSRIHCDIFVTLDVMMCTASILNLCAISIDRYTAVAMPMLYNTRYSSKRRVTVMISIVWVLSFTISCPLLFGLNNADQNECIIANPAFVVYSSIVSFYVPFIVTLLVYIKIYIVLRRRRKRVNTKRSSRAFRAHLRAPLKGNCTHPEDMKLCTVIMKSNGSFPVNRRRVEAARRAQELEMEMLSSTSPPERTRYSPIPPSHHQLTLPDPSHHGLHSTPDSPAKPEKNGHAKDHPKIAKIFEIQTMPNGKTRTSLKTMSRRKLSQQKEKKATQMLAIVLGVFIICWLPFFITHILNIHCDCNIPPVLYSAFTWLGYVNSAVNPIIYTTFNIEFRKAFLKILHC
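Agonist mode: compounds alone added to overnight-plated D2 PathHunter cells for 90 min at 37 C, with 57 uM final dopamine (EC100) defining full response. Beta-arrestin recruitment detected by chemiluminescent reagent, read after 1 h at ambient temperature.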
PINK1 expr mod: A Quantitative High throughput Screen to Identify Chemical Modulators of PINK1 Expression; PINK1 immunofluorescence, high-content cytometry, 24 h; Potency, µM (highest dose often 76.6 µM), for the others: top-dose activation (PINK1 increase), usual class: activators; 410,000 compounds, 0.2% hits; AID 624263, 2012; active = well fitted activation curve with a large enough effect; inconclusive = small, poorly fitted or top-dose-only effect; inactive = flat fitted curve, though single readings scatter; cell line not stated here;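 further: potency means the concentration at half of the fitted maximal effect; % of control where 0% means no effect; nearly all actives have a fitted effect of over 65% in size; a mitochondrial uncoupler was the plate control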
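Stable cell line, 250 cells/well, 12 h attachment; compounds pinned at 5 concentrations, 24 h; CCCP control. Fixed with nuclear dye, primary antibodies 12 h at 10 degrees C, secondary plus cell stain; laser-scanning cytometer read.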
Six1-Eya2 inh: qHTS Assay for Inhibitors of the Six1/Eya2 Interaction; activity change, % (concentration not given with the values); Homeobox protein SIX1 (Homo sapiens) + Protein phosphatase EYA2 (Homo sapiens), …; 360,000 compounds, 0.56% hits; AlphaScreen GST-Six1/His-Eya2 binding, biochemical; stronger effect = lower value; control for the full effect not named in the record; AID 651725, 2012; in the data active = activity change below about -65%; inconclusive = about -30% to -65%; inactive = above about -30%; further: on the % scale 0 is the no-effect control and ±100 the full control effect
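GST-Six1 + His-Eya2 (5X stock: 250/500 nM); Tris pH 8.0, 300 mM NaCl, 0.05% BSA, 0.02% Tween 20; GSH donor/Ni acceptor beads; 1 h 37 °C dark; AlphaScreen readout.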
TRPML1 blocker: qHTS for Inhibitors of the Human Mucolipin Transient Receptor Potential 1 (TRPML1); AID 624415, 2012; Mucolipin-1 (Homo sapiens), Q9GZU1; 390,000 compounds, 0.02% hits; TRPML1-inducible cells, Ca2+ dye fluorescence, FDSS; stronger effect = lower value; inhibition of EC80 agonist-evoked calcium signal; activity change, negative = inhibition, % (no concentration beside the values); in the data active means activity change below about -50%; inconclusive means about -30% to -50%; inactive means above about -30%;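 further: stimulus is agonist 54-4 at its EC80 concentration; on the % scale 0 is the no-effect control and ±100 the full control effect; compound concentration not given in the record; the text of the record puts the active cut at -80%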
Target sequence (Q9GZU1 whole entry, looked up): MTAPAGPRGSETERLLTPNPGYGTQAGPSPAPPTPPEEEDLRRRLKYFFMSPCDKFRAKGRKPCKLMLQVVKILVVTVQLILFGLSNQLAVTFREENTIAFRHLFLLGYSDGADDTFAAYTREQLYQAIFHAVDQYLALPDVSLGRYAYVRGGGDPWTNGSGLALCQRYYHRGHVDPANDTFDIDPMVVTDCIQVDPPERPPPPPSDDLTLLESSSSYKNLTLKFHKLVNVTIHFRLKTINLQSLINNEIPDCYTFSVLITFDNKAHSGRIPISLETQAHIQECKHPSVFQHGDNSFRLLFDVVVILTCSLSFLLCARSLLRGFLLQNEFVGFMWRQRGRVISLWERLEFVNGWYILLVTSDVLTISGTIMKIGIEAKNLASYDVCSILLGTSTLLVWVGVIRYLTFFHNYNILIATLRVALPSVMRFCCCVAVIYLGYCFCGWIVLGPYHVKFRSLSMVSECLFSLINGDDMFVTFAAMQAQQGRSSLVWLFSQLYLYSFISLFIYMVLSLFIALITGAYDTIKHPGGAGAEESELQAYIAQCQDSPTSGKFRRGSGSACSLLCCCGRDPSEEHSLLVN
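Tet-induced TRPML1-DL cells loaded with Ca8 no-wash calcium dye were read kinetically on FDSS. Compound addition was followed by EC80 agonist 54-4 (4 uM final); inhibition was read over 110 s.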
TRPML1 agonist: qHTS for Agonists of the Human Mucolipin Transient Receptor Potential 1 (TRPML1). Mucolipin-1 (Homo sapiens), Q9GZU1. AID 624414, 2012. activation, % (test concentration not listed). TRPML1-expressing cells, Ca2+ dye fluorescence, FDSS; host cell line not named in the record; reference of the full effect not given here. 410,000 compounds, 0.12% hits; in the data active = activation above about 50%; inconclusive = about 30% to 50%; inactive = below about 30%; further: 0% is about no effect; the text of the record puts the active cut at 80%
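Cells: TRPML1-DL, 1X Tet inducer, ~16 h at 37 degrees C/5% CO2. Dye: ABD Ca8 no-wash + quencher, 45-90 min RT. Read: 10 s baseline, compound add, 110 s agonist phase; 54-4 EC80 (4uM final), 110 s antagonist phase.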
* marks the source's active call; other numbers are inactive results; ? = inconclusive; . = not tested or not shown; [ ] = remark or other dose.

SMILES	CtBP-E1A inh	D2 agonist	PINK1 expr mod	Six1-Eya2 inh	TRPML1 blocker	TRPML1 agonist
O=c1c(Cl)c(N/N=C/c2ccc(Cl)cc2)cnn1-c1ccccc1	.	-4.7	-0.6%	4	7	1.2
O=C(CCC(=O)Nc1ccc(Br)cc1)N/N=C/c1ccccc1F	6	3.3	4.7%	4	4	-0.7
COc1ccc(-c2nnc(SCc3ccccc3)n2N)cc1	-7	-7.6	-0.1%	0	0	-0.1
CSc1ccc(CN2CCC(Oc3ccc(C(=O)N4CCCC4)cc3)CC2)cc1	-10	-3.5	-0.3%	-9	5	-1.2
CC1CN(C(=O)c2ccccc2OCc2ccccc2Cl)CC(C)O1 (stereo not drawn)	2	-1.1	0.2%	2	6	0.7
CC(C)(C)NC(=O)NC(=O)CSc1ncc(C(F)(F)F)cc1Cl	9	3.9	2.5%[38.3 µM]	3	-1	2.7
N#Cc1ccc(S(=O)(=O)N2CCN(C(=O)[C@@H]3CCCN3C(=O)c3cccs3)CC2)cc1	-3	-1.6	-0.1%	8	1	0.8
CCCCC(=O)Nc1ccc(NC(=O)c2cnccn2)cn1	4	-1.3	1.3%	4	38	-0.5
CCCNS(=O)(=O)c1ccc(NC(=O)c2cccnc2)cc1	5	-2.9	0.6%[38.3 µM]	0	-3	-0.5
C=CCn1c(=O)c2ccccc2n2c(SCC(=O)Nc3cc(C)on3)nnc12	-7	-0.1	1.4%	-1	9	1.8
CCCCn1c(N)c(N(CCOC)C(=O)c2cc(S(=O)(=O)N3CCOCC3)ccc2Cl)c(=O)[nH]c1=O	3	1.4	-1.2%	1	-13	-0.3
O=C(CN1C(=O)CSc2ncccc21)Nc1ccccc1F	.	-1.8	2.2%	8	-7	0.1
CCOC(=O)[C@@H]1[C@H]2COc3ccccc3[C@H]2N2C(=O)N(c3ccc(Cl)cc3)C(=O)[C@@]12C	-6	-3.6	2.8%	-9	-10	-0.8
CNC(=O)/C(C#N)=C/c1c(N2CCN(C)CC2)nc2c(C)cccn2c1=O	-6	-18	-1.7%	-7	13	1.5
Cc1[nH]c2ccccc2c(=O)c1CN1CCCCCC1	-7	-2.9	2.2%	-2	18	-0.3
COc1ccc(OC)c(Nc2ncnc3sc(-c4ccccc4)cc23)c1	15	-5.7	7.6%	5	?	0.9
O=C(CN1C(=O)CSC1=O)c1ccccc1	3	-2.8	-0.8%	2	-7	-0.1
Cn1c2c(c(=O)n(C)c1=O)C(NC(=O)c1cccs1)(C(F)(F)F)C(=O)N2 (stereo not drawn)	-2	-1.8	-1.2%	5	-13	1.8
CCc1nnc(NC(=O)CN2CCN(c3cccc(OC)c3)CC2)s1	1	-2.0	1.1%	-6	7	-0.8
O=c1c2cc3c(cc2n(Cc2cccc(Cl)c2)c(=O)n1Cc1nc(-c2ccccc2)no1)OCO3	.	.	1.6%	.	14	2.1

Entries of single compounds, quoted from the list:
`CCCNS(=O)(=O)c1ccc(NC(=O)c2cccnc2)cc1` is listed with CtBP-E1A inh = 5; D2 agonist = -2.9; PINK1 expr mod = 0.6%[38.3 µM]; Six1-Eya2 inh = 0; TRPML1 blocker = -3; TRPML1 agonist = -0.5
`C=CCn1c(=O)c2ccccc2n2c(SCC(=O)Nc3cc(C)on3)nnc12` is listed with CtBP-E1A inh = -7; D2 agonist = -0.1; PINK1 expr mod = 1.4%; Six1-Eya2 inh = -1; TRPML1 blocker = 9; TRPML1 agonist = 1.8

(continued)
SMILES	CtBP-E1A inh	D2 agonist	PINK1 expr mod	Six1-Eya2 inh	TRPML1 blocker	TRPML1 agonist
N=c1c(C(=O)NCc2ccc(F)cc2)cc2c(=O)n3ccccc3nc2n1Cc1ccco1	2	-3.2	-1.4%	-4	31	1.3
COc1cc(NS(=O)(=O)c2ccc(-c3ccc(=O)[nH]n3)o2)cc(OC)c1OC	-21	0.7	-0.4%	-11	-6	-0.2
CC(C)(Oc1ccc(Cl)cc1)C(=O)Nc1ccc(S(=O)(=O)Nc2ncccn2)cc1	2	-1.1	0.4%	3	-15	0.0
CCOc1ccc(N(CC(=O)Nc2ccccc2C)S(=O)(=O)c2c(C)noc2C)cc1	1	-2.0	7.8%	-3	3	2.6
O=C(C1=C(O)C(=O)N(CC2CCCO2)C1c1ccccc1)c1ccco1 (stereo not drawn)	3	-4.1	0.0%	3	-1	-0.6
O=C(Nc1ccn(-c2ccccc2)n1)c1ccc(Cl)cc1	6	-1.5	-0.6%	7	0	1.8
Cc1ccc(C)c(NCc2n[nH]c(=S)n2-c2ccccc2)c1	3	-0.9	-1.9%	2	-3	-0.3
CC(=O)NC(=S)NNC(=O)C(c1ccccc1)c1ccccc1	.	-5.0	3.5%	0	-17	3.5
CC1CCCN(S(=O)(=O)c2ccc(S(=O)(=O)N3CCC4(CC3)OCCO4)cc2)C1 (stereo not drawn)	-2	-4.3	3.2%	1	-7	1.5
CCCc1cc(=O)oc2cc(OCC(=O)NCCCn3ccnc3)ccc12	26	-3.1	-0.1%	9	-1	-0.9
Cc1c(O)nc2ccccn2c1=O	5	1.5	-1.6%	12	18	0.6
CC1CCN(C(=O)c2ccc(NS(=O)(=O)c3cccc4cccnc34)cc2)CC1	8	0.3	-0.9%	1	40	0.8
COc1cccc(C(=O)NCCSCc2c(F)cccc2Cl)c1	7	2.6	0.5%	1	-2	-0.4
O=C(O)C(Cc1c[nH]c2ccccc12)N1Cc2ccccc2C1=O (stereo not drawn)	?	0.9	-1.7%	-6	-23	1.4
O=C(Nc1ccccc1N1CCN(C(=O)c2ccccc2)CC1)c1cc(Br)ccc1Cl	-17	-2.3	-4.2%	-9	85	2.9
N#CC1=C(N)Oc2c(oc(CO)cc2=O)C1c1ccccc1[N+](=O)[O-] (stereo not drawn)	-9	-3.8	0.8%	-1	-4	0.0
COc1ccc(S(=O)(=O)NC(C)C(=O)Nc2ccc3c(c2)OCCO3)cc1OC (stereo not drawn)	8	-4.2	-0.6%	-2	-9	-0.7
CC(NC(=O)C[n+]1cccc(Br)c1)c1ccccc1 (stereo not drawn)	.	-4.8	0.4%	0	-8	1.8
C/C(=N/N1CCN(c2ccccc2)CC1)c1cccc([N+](=O)[O-])c1	-22	7.0	0.5%	-7	-9	-0.9
CC(C(=O)Nc1ccc(S(=O)(=O)N2CCCC2)cc1)N1CCCC(C(N)=O)C1 (stereo not drawn)	4	-1.2	3.5%	-1	-3	-0.2
CCCCC[C@@H]1CCCCC[C@H](O)C[C@H](O)[C@@H](O)/C=C/C(=O)O1	2	.	1.7%	5	.	0.0
O=C(O)CSCC(=O)Nc1ccc(Br)c(C(F)(F)F)c1	5	-1.9	-0.1%	3	-3	-0.5
O=[N+]([O-])c1ccccc1S(=O)(=O)NCc1ccco1	1	2.5	1.9%	0	12	-0.6
COC(=O)C1CSC2c3ccccc3C(=O)N12 (stereo not drawn)	-1	-4.3	2.6%	7	37	0.6
CC(C)(C)c1ccc(S(=O)(=O)O/N=C2/CCCCC2c2ccc([N+](=O)[O-])cc2[N+](=O)[O-])cc1 (stereo not drawn)	4	8.5	0.3%	0	2	-0.3
O=C(O)CC(CC(=O)Nc1ccc(Oc2ccccc2)cc1)c1ccccc1 (stereo not drawn)	4	-1.0	3.6%	9	-13	0.8
O=C(NCCNC(=O)Nc1ccc(Cl)cc1)Nc1ccc(Cl)cc1	10	-1.7	4.2%	0	2	0.5
CCOC(=O)c1sc2nc(N3CCCC3)c3c(c2c1N)CC(C)(C)OC3	-1	0.5	4.2%	3	23	3.3
CCC1CCCCN1CCCNC(=O)c1ccc(CS(=O)(=O)c2ccccc2C)o1 (stereo not drawn)	7	0.8	-1.0%	2	4	0.3
CCCOC(=O)c1ccc(N2C(=O)c3ccccc3C2=O)cc1	-9	-2.3	4.4%	3	12	0.6
COC(=O)CSc1nc(C)c(Oc2ccccc2)c(=O)[nH]1	-2	-2.0	0.8%	-1	?	1.1
O=C(Nc1ccc(Br)cc1Cl)N1CCOCC1	.	-0.3	0.4%	7	-10	0.0
Cc1[nH]c2ccc(Br)cc2c(=O)c1CN1CCOCC1	0	-3.3	-1.1%	-1	6	1.3
O=c1[nH]c(=O)n(CCO)c2nnn(Cc3ccccc3)c12	-1	-0.9	0.6%	3	?	0.6
COc1ccc2occ(C(=O)c3ccccc3)c2c1	31	-3.7	2.5%	27	7	-0.8
O=C(c1cccs1)N1C[C@H](O)[C@@H](n2cc(C3CC3)nn2)C[C@@H]1c1ccccc1	0	-0.6	-1.6%	12	-21	-0.6
CCNC(=O)Cc1ccc(Br)cc1	11	-2.5	0.2%	8	4	-0.8
Oc1ccc(Br)cc1/C=N/n1cnc2ccccc21	10	5.3	1.0%[38.3 µM]	6	2	0.7
COc1cccc2c1ncc1c(-c3ccc(C)cc3)nn(-c3cccc([N+](=O)[O-])c3)c12	.	.	1.1%	.	-12	2.5
O=C(N/N=C\c1ccc(Cl)s1)c1cccs1	-14	-2.8	-1.5%	-1	1	0.3

2 entries picked at random from the list so far, as already listed:
SMILES	CtBP-E1A inh	D2 agonist	PINK1 expr mod	Six1-Eya2 inh	TRPML1 blocker	TRPML1 agonist
O=[N+]([O-])c1ccccc1S(=O)(=O)NCc1ccco1	1	2.5	1.9%	0	12	-0.6
CCOC(=O)c1sc2nc(N3CCCC3)c3c(c2c1N)CC(C)(C)OC3	-1	0.5	4.2%	3	23	3.3

Next compounds follow:
SMILES	CtBP-E1A inh	D2 agonist	PINK1 expr mod	Six1-Eya2 inh	TRPML1 blocker	TRPML1 agonist
CCOc1ccc(-c2ccc(NS(=O)(=O)c3cc(C)ccc3OC)cc2)nn1	.	.	-0.2%	.	-13	1.0
Nc1nc(Nc2ccc(Cl)cc2)n[nH]1	0	-0.8	-2.6%	18	5	-0.7
CCN1CCN(C(c2cccc(F)c2)c2c(O)cc(C)n(Cc3ccco3)c2=O)CC1 (stereo not drawn)	.	.	0.2%	.	14	0.5
CN(CC(=O)Nc1cccc(F)c1)C(=O)c1ccc2c(c1)CC(c1ccccc1)OC2=O (stereo not drawn)	-21	-4.6	8.6%	-5	12	0.3
O=C(Cn1cnc2c(nnn2Cc2ccc(Cl)cc2)c1=O)N1CCN(c2ccccc2)CC1	-4	-1.5	0.2%	-6	32	0.4
CCOc1cccc(C(=O)N(Cc2ccc(CC)cc2)C2CCS(=O)(=O)C2)c1 (stereo not drawn)	.	.	1.5%	.	4	-0.6
Cc1ccc(NC(=O)N2CCc3ccccc3C2)cc1C	7	-2.4	-0.8%	3	-4	0.0
CCC(C)Sc1nnc(NC(=O)c2ccco2)s1 (stereo not drawn)	5	5.1	-2.0%	9	60	1.6
O=C(NCC(c1ccc2c(c1)OCO2)N1CCOCC1)C(=O)Nc1ccc(F)cc1F (stereo not drawn)	.	.	0.0%	.	-12	1.0
